Bioassay records: PubChem, Broad Institute
Vaccinia stage: Vaccinia orthopox stage-specific inhibition | Vaccinia-infected cells, mCherry/Venus stage reporter fluorescence; active compounds read low; some inactives read as strong as hits | activity change (mCherry), % (concentration not given with the values) | 0.01% of 89,000 active;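 active = mCherry past -33% and 40 or more points under the early reporter, replicates agreeing; inconclusive = past -33% without that gap or agreement; tested in A549 cells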;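 note: scaled between vehicle wells and reference inhibitor wells; 23 nL library stock went into each well; one replicate is shown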
Vaccinia stage Venus: also measured in Vaccinia stage; calls as there; activity change (Venus), %; measured here: Venus reporter, other viral stage;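 negative = less Venus signal; first of two replicates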
* hit, by the source's call; ? = inconclusive; . = not tested or not shown; & = joins results of further samples.

Compound,Vaccinia stage,Vaccinia stage Venus
O=C(N[C@H]1CC[C@@H](CCNS(=O)(=O)c2cccc(Cl)c2)O[C@H]1CO)c1ccncc1,-11.4,-13.2
OC[C@@H]1Nc2ccc(-c3cccc(F)c3)cc2[C@@H]2[C@H]1CCN2Cc1ccc(F)cc1,-18.0,57.4
C[C@H]1CN([C@@H](C)CO)C(=O)Cc2cc(NC(=O)Cn3cnnn3)ccc2O[C@H]1CN(C)S(=O)(=O)c1ccc(Cl)cc1,8.6,9.0
C[C@H]1CN([C@@H](C)CO)C(=O)c2cc(NC(=O)CCN3CCOCC3)ccc2O[C@@H]1CN(C)S(=O)(=O)c1cccs1,6.1,-0.3
CO[C@H]1CN(C)C(=O)c2cc(NC(=O)C3CC3)ccc2OC[C@@H](C)N(Cc2cc(F)ccc2F)C[C@@H]1C,-18.4,-5.5
C[C@@H]1CN([C@@H](C)CO)C(=O)c2cc(C#CC(C)(C)O)cnc2O[C@@H]1CN(C)C(=O)c1ccccc1F,2.2&10.4,0.0&1.8
C/C=C/c1ccc([C@H]2[C@@H](CO)N(CC3CC3)C23CN(S(C)(=O)=O)C3)cc1,-5.9,-3.2
CC(=O)N(C)C[C@@H]1Oc2cc(C#Cc3cccnc3)ccc2S(=O)(=O)N([C@@H](C)CO)C[C@@H]1C,27.3,10.7
O=C(C[C@H]1CC[C@H]2[C@@H](COC[C@H](O)CN2Cc2cc(F)ccc2F)O1)N[C@@H]1CCN(Cc2ccccc2)C1,-33.4,-25.5
O=C(C[C@H]1C[C@H]2c3cc(NC(=O)Nc4ccccc4F)ccc3O[C@H]2[C@@H](CO)O1)NCC1CC1,0.6,0.3
C[C@@H]1CCCCO[C@H](CN(C)C(=O)c2ccncc2)[C@H](C)CN([C@@H](C)CO)C(=O)c2cc(NS(=O)(=O)c3cccs3)ccc2O1,17.9,3.5
C[C@@H]1CN([C@@H](C)CO)C(=O)CCCn2cc(nn2)CO[C@@H]1CN(C)C(=O)Nc1ccc(C(F)(F)F)cc1,7.2,3.3
COc1ccc2c3c([nH]c2c1)[C@@H](CO)N(C(=O)c1cccc(F)c1)CC31CN(C(=O)c2ccccc2)C1,-4.2,-6.0
CO[C@@H]1CC[C@H]2CCOc3ccc(C#N)cc3C(=O)N(C)C[C@H](C)C(=O)N(C)C[C@@H]1O2,9.4,0.3
CN1C(=O)c2cc(NC(=O)NC3CCCC3)ccc2OC[C@H]2O[C@@H](CC(=O)O)CC[C@H]21,-8.8,2.4
C[C@H](CO)N1C[C@H](C)[C@@H](CN(C)Cc2ccc(Cl)c(Cl)c2)Oc2ccc(NS(=O)(=O)c3cn(C)cn3)cc2C1=O,9.5,9.9
Cc1ccc(-c2ccc([C@@H]3[C@H](CO)N4C(=O)CN(C(=O)c5ccncc5)C[C@@H]34)cc2)cc1,29.1,23.8
Cc1ccccc1S(=O)(=O)N(C)C[C@H]1OCc2cn(nn2)CCCC(=O)N([C@@H](C)CO)C[C@@H]1C,10.9&4.7,12.6&1.2
C/C=C/c1cnc2c(c1)C(=O)N([C@@H](C)CO)C[C@H](C)[C@@H](CN(C)Cc1cncnc1)O2,57.2,29.8
O=C(CN1CCOCC1)N(CC1CCC1)C[C@H]1N[C@H](CO)[C@@H]1c1ccccc1,14.8,20.1
C[C@@H]1CN([C@@H](C)CO)S(=O)(=O)c2ccc(-c3ccncc3)cc2O[C@H]1CN(C)C(=O)CN(C)C,13.8,12.9
CCCNC(=O)C[C@H]1CC[C@H]2[C@@H](COC[C@H](O)CN2C(=O)c2cccnc2)O1,22.0,7.7
COc1ccc(CN(C)C[C@@H]2Oc3ccc(NS(=O)(=O)c4c(C)noc4C)cc3C(=O)N([C@@H](C)CO)C[C@@H]2C)cc1,-0.5,-5.9
COc1ccc(NC(=O)N(C)C[C@@H]2OCCCC[C@@H](C)Oc3ccc(NC(=O)NC(C)C)cc3C(=O)N([C@@H](C)CO)C[C@H]2C)cc1,9.8,9.2
C[C@H]1CN([C@@H](C)CO)C(=O)CCCn2cc(nn2)CO[C@@H]1CN(C)Cc1ccc2c(c1)OCCO2,8.5,4.2
CO[C@@H]1CN(C)C(=O)c2ccc(NC(=O)c3ccccc3)cc2OC[C@H](C)N(C)C[C@@H]1C,-11.9,-9.9
C[C@H](CO)N1C[C@H](C)[C@H](CN(C)Cc2ccccc2F)Oc2ncc(-c3ccccc3F)cc2C1=O,-15.5,-8.3
C[C@@H]1CN([C@H](C)CO)C(=O)Cc2cc(NS(=O)(=O)c3ccccc3)ccc2O[C@@H]1CN(C)Cc1ccncc1,10.5,-1.6
CO[C@H]1CN(C)C(=O)c2cc(NC(C)=O)ccc2OC[C@H](C)N(C(=O)C2CC2)C[C@H]1C,6.7,-4.6
C[C@H]1CCCCO[C@H](CN(C)C(=O)C2CCCCC2)[C@@H](C)CN([C@@H](C)CO)C(=O)c2cc(NS(=O)(=O)c3ccccc3)ccc2O1,1.0,3.4
Cc1noc(C)c1S(=O)(=O)Nc1ccc2c(c1)C(=O)N([C@@H](C)CO)C[C@H](C)[C@@H](CN(C)Cc1ccc(C(=O)Nc3ccccc3N)cc1)O2,19.9,8.0
CN(C)CCCNC(=O)[C@H]1[C@H](CO)[C@H]2Cn3c(cccc3=O)[C@@H]1N2CC1CC1,-6.3,-7.4
COc1ccc(CN(C)C[C@@H]2OCCCC[C@H](C)Oc3ccc(NS(=O)(=O)c4ccc(OC)cc4)cc3C(=O)N([C@@H](C)CO)C[C@H]2C)cc1,?,.
COc1ccc2c3c(n(C)c2c1)[C@H](CO)N(C(=O)CN(C)C)CC31CCN(Cc2cccnc2)CC1,-4.8,-15.3
CC(C)NC(=O)Nc1ccc2c(c1)CC(=O)N([C@@H](C)CO)C[C@H](C)[C@H](CN(C)Cc1ccc(C(=O)O)cc1)O2,31.2,27.9
C[C@@H]1CN([C@H](C)CO)C(=O)CCCn2nncc2CO[C@@H]1CN(C)C(=O)C1CCCCC1,25.5,11.9
O=C(c1ccc2c(c1)OCO2)N1CC(=O)N2[C@H](CO)[C@H](c3ccc(C#CC4CCCC4)cc3)[C@H]2C1,?,.
COc1ccc(S(=O)(=O)N(C)C[C@H]2OCCCC[C@@H](C)Oc3ccc(NS(=O)(=O)c4ccc(F)cc4)cc3C(=O)N([C@@H](C)CO)C[C@@H]2C)cc1,-33.6,-22.2
COCC#Cc1cnc2c(c1)C(=O)N([C@H](C)CO)C[C@H](C)[C@@H](CN(C)C(C)=O)O2,4.6,8.4
NCC[C@H]1CC[C@@H](NC(=O)c2ccccc2F)[C@@H](CO)O1,9.1,1.3
Cc1ccccc1-c1ccc([C@@H]2[C@H](CO)N3C(=O)CN(C(=O)c4ccncc4)C[C@@H]23)cc1,8.8,23.2
C[C@H]1CN([C@@H](C)CO)C(=O)CCCn2nncc2CO[C@H]1CN(C)S(=O)(=O)c1ccc(Oc2ccccc2)cc1,-5.3&-23.7,-10.8&-14.4
C[C@H](CO)N1C[C@H](C)[C@H](CN(C)Cc2ccc(C(=O)Nc3ccccc3N)cc2)Oc2ccc(NS(=O)(=O)c3cn(C)cn3)cc2CC1=O,6.5,4.9
O=C(c1ccccn1)N1C[C@@H]2[C@H](c3ccccc31)[C@@H](CO)N2C(=O)C1CCOCC1,6.5,6.1
Cc1ccc(S(=O)(=O)N(C)C[C@@H]2Oc3ccc(NS(=O)(=O)c4ccccc4)cc3CC(=O)N([C@H](C)CO)C[C@@H]2C)cc1,1.9,-0.3
Cc1noc(C)c1NC(=O)Nc1ccc2c(c1)C(=O)N([C@@H](C)CO)C[C@H](C)[C@@H](CN(C)S(=O)(=O)c1ccccc1)OCCCC[C@H](C)O2,32.8,18.4
C[C@@H]1CN([C@@H](C)CO)C(=O)c2cc(NS(=O)(=O)c3ccccc3)ccc2O[C@@H](C)CCCCO[C@H]1CN(C)S(=O)(=O)c1ccc(F)cc1,?,.
CCCN1[C@@H]2c3ccc(-c4ccc(OC)cc4)c(=O)n3C[C@H]1[C@H](CO)[C@H]2C(=O)OC,-1.6,4.5
COc1ccc(C#Cc2ccc3c(c2)O[C@@H](CN(C)C(=O)c2ccccn2)[C@@H](C)CN([C@H](C)CO)S3(=O)=O)cc1,?,.
C[C@@H]1CCCCO[C@H](CN(C)Cc2ccncc2)[C@H](C)CN([C@@H](C)CO)C(=O)c2cc(NC(=O)CCCN(C)C)ccc2O1,4.0,-3.9
C[C@H]1CN([C@@H](C)CO)C(=O)Cc2cc(NS(=O)(=O)c3cn(C)cn3)ccc2O[C@@H]1CN(C)Cc1ccc(Cl)c(Cl)c1,14.1,21.6
O=C(C[C@@H]1CC[C@H]2[C@@H](COC[C@@H](O)CN2S(=O)(=O)c2ccc(Cl)cc2)O1)N[C@@H]1CCN(Cc2ccccc2)C1,-24.7,-14.0
C[C@H](CO)N1C[C@H](C)[C@@H](CN(C)C(=O)c2cccnc2)Oc2ncc(/C=C/c3ccccc3)cc2C1=O,19.1,2.2
COc1ccc2c3c([nH]c2c1)[C@@H](CO)N(S(=O)(=O)c1cn(C)cn1)CC31CCN(CC2CCCCC2)CC1,-11.1,-5.9
CN(C)C(=O)[C@]1(Cc2ccccc2)N=C(c2ccc(OCCCO)cc2)O[C@@H]1c1ccccc1,?,.
C[C@@H]1CCCCO[C@@H](CN(C)S(=O)(=O)c2ccc(F)cc2)[C@H](C)CN([C@@H](C)CO)C(=O)c2cc(NC(=O)NC3CCCCC3)ccc2O1,-19.7,-9.8
CC(C)(C)[S@](=O)N1Cc2cc(C(=O)N[C@@H]3CCN(Cc4ccccc4)C3)nc(-c3cccc(-c4cccnc4)c3)c2[C@@H]1CCO,-26.2,8.3
COc1ccccc1-c1cnc2c(c1)C(=O)N([C@H](C)CO)C[C@@H](C)[C@H](CN(C)C(=O)CN(C)C)O2,19.1,2.8
O=C(C[C@@H]1CC[C@H]2[C@@H](COC[C@@H](O)CN2C(=O)Nc2ccccc2)O1)NCCc1ccncc1,6.7,6.9
C[C@@H]1CN([C@H](C)CO)C(=O)Cc2cc(NC(=O)Nc3ccc(F)cc3)ccc2O[C@H]1CN(C)Cc1ccc(C(=O)Nc2ccccc2N)cc1,-4.9,-6.7

Later entries.
Compound,Vaccinia stage,Vaccinia stage Venus
C[C@H]1CN([C@@H](C)CO)S(=O)(=O)c2ccc(-c3cncnc3)cc2O[C@@H]1CN(C)C(=O)Cc1cccnc1,23.2,4.3
C[C@H]1CN([C@@H](C)CO)C(=O)c2cccc(NC(=O)c3ccncc3)c2O[C@H]1CN(C)C(=O)NC1CCCCC1,16.2,3.4
CC(=O)N1[C@@H](CO)[C@@H](c2ccccc2)[C@@H]1CNC(=O)CN1CCOCC1,17.8,16.4
O=C(CN1CCOCC1)N[C@@H]1CC[C@H](CCNC(=O)C2CCCCC2)O[C@@H]1CO,5.2,7.8
O=C(C[C@@H]1C[C@@H]2c3cc(NC(=O)c4cccnc4)ccc3O[C@@H]2[C@@H](CO)O1)NCc1ccncc1,9.5,6.7
C[C@@H]1CN([C@H](C)CO)C(=O)c2cc(C#CC3CCCCC3)cnc2O[C@@H]1CN(C)S(=O)(=O)c1ccc(F)cc1,?,.
O=C(C[C@H]1CC[C@@H]2[C@H](COC[C@H](O)CN2C(=O)c2ccc3c(c2)OCO3)O1)NCCN1CCCCC1,9.7,-2.2
Cc1noc(C)c1NC(=O)Nc1ccc2c(c1)C(=O)N([C@@H](C)CO)C[C@H](C)[C@@H](CN(C)C(=O)Nc1ccc3c(c1)OCO3)OCCCC[C@H](C)O2,5.0,8.3
CCCNC(=O)C[C@@H]1CC[C@H]2[C@@H](COc3ccc(NC(=O)Nc4ccccc4F)cc3C(=O)N2C)O1,9.3,-1.6
Cc1ccccc1S(=O)(=O)N1C[C@H](O)COC[C@H]2O[C@H](CC(=O)NCCc3ccccc3)CC[C@@H]21,-12.6,-18.1
CO[C@H]1CN(C)C(=O)c2ccc(NC(=O)Cc3ccccc3)cc2OC[C@H](C)NC[C@@H]1C,-8.2,-5.0
Cc1ccc(-c2ccc([C@@H]3[C@H]4CN(C(=O)Nc5cccc(F)c5)CC(=O)N4[C@H]3CO)cc2)cc1,-2.3,-7.9
O=C(C[C@H]1CC[C@@H]2[C@H](COC[C@H](O)CN2C(=O)c2ccccc2F)O1)NCc1ccc(Cl)cc1,-0.8,4.5
CCC(=O)N1CC(=O)N2[C@H](C1)[C@H](c1ccc(-c3ccccc3F)cc1)[C@@H]2CO,-1.1,-7.5
COc1ccc2c3c([nH]c2c1)[C@@H](CO)N(C(=O)Nc1ccccc1F)CC31CCN(C(C)=O)CC1,15.0,5.4
O=C(CCN1CCCCC1)N[C@@H]1C=C[C@@H](CC(=O)N2CCC(Cc3ccccc3)CC2)O[C@H]1CO,-22.0,-3.1
CCCNC(=O)N1[C@H](C#N)[C@H](c2ccc(C3=CCCCC3)cc2)[C@H]1CO,-9.8,-5.3
C[C@H](O)C#Cc1cnc2c(c1)C(=O)N([C@H](C)CO)C[C@H](C)[C@H](CN(C)C(=O)c1ccccc1F)O2,-2.0,-2.0
O=C(C[C@@H]1CC[C@H](NC(=O)Cc2cccnc2)[C@@H](CO)O1)NCc1ccc2c(c1)OCO2,6.8,9.1

Another view of 4 compounds above.
Value order – Vaccinia stage, Vaccinia stage Venus
> COc1ccc2c3c([nH]c2c1)[C@@H](CO)N(C(=O)Nc1ccccc1F)CC31CCN(C(C)=O)CC1
 : 15.0, 5.4
> O=C(CCN1CCCCC1)N[C@@H]1C=C[C@@H](CC(=O)N2CCC(Cc3ccccc3)CC2)O[C@H]1CO
 : -22.0, -3.1
> CCCNC(=O)N1[C@H](C#N)[C@H](c2ccc(C3=CCCCC3)cc2)[C@H]1CO
 : -9.8, -5.3
> C[C@H](O)C#Cc1cnc2c(c1)C(=O)N([C@H](C)CO)C[C@H](C)[C@H](CN(C)C(=O)c1ccccc1F)O2
 : -2.0, -2.0

A portion of the library; the hit share may differ from the screen's.
